# STAT3 binder – binders of human STAT3; calls only; P40763; 0.2% of 17,000 active; Small molecule microarray, His-STAT3 binding, anti-His fluorescence;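 active = compounds whose four printed spots each show fluorescence over background unusually high for their array block, chance value under 7%; compounds were printed on slides so no solution concentration is given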;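 note: about 2 pmol printed per array spot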
# Target sequence (P40763 whole entry, looked up): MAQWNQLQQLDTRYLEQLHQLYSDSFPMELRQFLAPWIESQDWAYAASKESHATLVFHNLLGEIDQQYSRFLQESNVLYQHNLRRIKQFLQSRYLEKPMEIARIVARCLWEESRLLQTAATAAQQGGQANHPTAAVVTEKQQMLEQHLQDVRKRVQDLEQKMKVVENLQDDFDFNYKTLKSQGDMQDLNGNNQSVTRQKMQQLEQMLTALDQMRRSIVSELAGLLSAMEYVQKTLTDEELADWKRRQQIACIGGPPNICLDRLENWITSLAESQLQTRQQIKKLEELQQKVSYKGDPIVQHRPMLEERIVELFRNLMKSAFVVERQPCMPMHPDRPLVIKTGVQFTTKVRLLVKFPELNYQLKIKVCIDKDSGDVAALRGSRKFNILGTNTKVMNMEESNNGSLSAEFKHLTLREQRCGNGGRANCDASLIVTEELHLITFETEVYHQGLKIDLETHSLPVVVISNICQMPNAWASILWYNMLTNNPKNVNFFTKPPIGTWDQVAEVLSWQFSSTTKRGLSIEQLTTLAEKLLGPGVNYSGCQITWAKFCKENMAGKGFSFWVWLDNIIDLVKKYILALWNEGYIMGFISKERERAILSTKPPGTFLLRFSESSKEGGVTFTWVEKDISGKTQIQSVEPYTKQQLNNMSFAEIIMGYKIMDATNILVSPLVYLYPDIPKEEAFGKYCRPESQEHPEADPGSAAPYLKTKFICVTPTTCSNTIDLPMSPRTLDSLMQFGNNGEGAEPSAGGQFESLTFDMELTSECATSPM
# p53 mut binder – mutant p53 (human) binding. small molecule microarray binding, anti-GST fluorescence. calls only. 0.4% of 17,000 active. AID 624136;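 active = compounds whose four printed spots each glow above background more than chance allows, each with a p-value under 7%; compounds were printed on slides so no solution concentration is given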;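 note: about 2 pmol printed per array spot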
# ID4 SMM – binds human ID4 protein on microarray | P47928 | small molecule microarray, Flag-ID4 binding, fluorescence F/B | 1.2% of 31,000 active | calls only;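 active = spot signal over background at p below 0.07 in all four prints; compounds were printed on slides so no solution concentration is given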;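 note: a binder raises fluorescence above local background on the spot; about 2 pmol printed per array spot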
# Target sequence (P47928 whole entry, looked up): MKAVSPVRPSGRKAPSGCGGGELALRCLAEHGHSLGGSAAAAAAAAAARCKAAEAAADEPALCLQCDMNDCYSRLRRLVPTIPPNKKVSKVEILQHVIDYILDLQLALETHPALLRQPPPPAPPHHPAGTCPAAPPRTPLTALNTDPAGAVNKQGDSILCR
# Myc binder – binds human c-Myc on microarray; P01106; small molecule microarray, His-c-Myc binding, anti-His fluorescence; calls only; 1.5% of 17,000 active; AID 624141;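 active = spot fluorescence over background with P-value below 7% in all four replicate spots, showing protein binding; compounds were printed on slides so no solution concentration is given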;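 note: score is binary with 100 for all four spots passing and 0 otherwise; about 2 pmol printed per array spot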
# Calls only; i = inactive; x = not tested or not shown; + = active, no number. A portion of the library (hit frequency here may not be typical).
structure	STAT3 binder	p53 mut binder	ID4 SMM	Myc binder
CNC[C@@H]1Oc2c(NC(=O)c3cc(C)nn3C)cccc2C(=O)N([C@H](C)CO)C[C@H]1C	i	i	i	i
O=C(NCCCn1ccnc1)C1CCC1	i	i	i	i
C[C@@H]1CN([C@H](C)CO)C(=O)Cc2cc(N(C)C)ccc2O[C@@H]1CN(C)C(=O)Nc1ccc2c(c1)OCO2	i	i	i	i
C/C=C1\[C@H](O[C@@H]2O[C@H](CO)[C@@H](O)[C@H](O)[C@H]2O)OC=C(C(=O)OC)[C@H]1CC(=O)OC[C@H]1O[C@@H](OCCc2ccc(O)cc2)[C@H](O)[C@@H](O)[C@@H]1OC(=O)C[C@@H]1C(C(=O)OC)=CO[C@@H](O[C@@H]2O[C@H](CO)[C@@H](O)[C@H](O)[C@H]2O)/C1=C\C	i	i	x	i
Cc1nc(S(=O)(=O)N[C@@H]2CCCN(Cc3ccc(OCCO)cc3)C2)cn1C	i	i	x	i
CC1(C)CC[C@]2(C(=O)O)CC[C@]3(C)C(=CCC4[C@@]5(C)CC[C@H](O[C@@H]6O[C@H](C(=O)O)[C@@H](O[C@@H]7OC[C@@H](O)[C@H](O)[C@H]7O)[C@H](O)[C@H]6O)C(C)(C)C5CC[C@]43C)C2C1O (stereo partly drawn)	i	i	i	i
COc1ccc(OC)c(NC(=O)CSc2nc(-c3ccccc3)cs2)c1	i	i	i	i
CNC[C@@H]1Oc2ccc(NS(C)(=O)=O)cc2CC(=O)N([C@@H](C)CO)C[C@@H]1C	i	i	+	i
COc1ccc(C#Cc2ccc3c(c2)[C@]2(C(=O)N3)[C@H](C(=O)O)[C@H]3C(=O)O[C@H](c4ccccc4)[C@H](c4ccccc4)N3[C@@H]2c2ccc(OCCO)cc2)cc1	i	i	x	i
COc1ccc(CCNC(=O)[C@@H]2c3ccccc3C(=O)N(CC34CC5CC(CC(C5)C3)C4)[C@H]2c2ccc(CO)cc2)cc1	i	i	i	i

# Entries shown so far that contain four or more nitrogen atoms:
structure	STAT3 binder	p53 mut binder	ID4 SMM	Myc binder
CNC[C@@H]1Oc2c(NC(=O)c3cc(C)nn3C)cccc2C(=O)N([C@H](C)CO)C[C@H]1C	i	i	i	i
C[C@@H]1CN([C@H](C)CO)C(=O)Cc2cc(N(C)C)ccc2O[C@@H]1CN(C)C(=O)Nc1ccc2c(c1)OCO2	i	i	i	i
Cc1nc(S(=O)(=O)N[C@@H]2CCCN(Cc3ccc(OCCO)cc3)C2)cn1C	i	i	x	i

# (list continues)
structure	STAT3 binder	p53 mut binder	ID4 SMM	Myc binder
C[C@H](CO)N1C[C@H](C)[C@@H](CN(C)Cc2ccc(C(F)(F)F)cc2)Oc2c(NS(C)(=O)=O)cccc2C1=O	i	i	i	i
C[C@@H]1CCCCO[C@H](CN(C)C)[C@H](C)CN([C@H](C)CO)C(=O)c2cc(NC(=O)Nc3cccc4ccccc34)ccc2O1	i	i	i	i
Cc1noc(C)c1NC(=O)N(C)C[C@H]1Oc2ccc(NC(=O)C3CC3)cc2C(=O)N([C@@H](C)CO)C[C@H]1C	i	i	i	i
C[C@H](CO)N1C[C@H](C)[C@H](CN(C)S(=O)(=O)c2cn(C)cn2)Oc2ccc(N(C)C)cc2CC1=O	i	i	i	i
CCOC(=O)c1c(NC(=O)C2CC(c3ccccc3O)=NO2)sc2c1CCCC2 (stereo not drawn)	i	i	i	i
Cc1noc(C)c1NC(=O)N(C)C[C@H]1Oc2c(cccc2N(C)C)C(=O)N([C@@H](C)CO)C[C@@H]1C	i	i	i	i
CC(=O)Nc1ccc(NC(=O)CSc2nnc(-c3ccc(N)cc3)n2C)cc1	i	i	i	i
C[C@H](CO)N1C[C@H](C)[C@@H](CN(C)C(=O)C2CCCCC2)OCCCC[C@H](C)Oc2ccc(NC(=O)c3ccncc3)cc2C1=O	i	i	i	i
C[C@@H]1CN([C@@H](C)CO)C(=O)c2cc(NC(=O)CCCN(C)C)ccc2O[C@H]1CN(C)Cc1ccncc1	i	i	i	i
C[C@@H]1CCCCO[C@@H](CN(C)C(=O)C2CCCCC2)[C@@H](C)CN([C@@H](C)CO)C(=O)c2cc(NS(=O)(=O)c3ccccc3)ccc2O1	i	i	i	i

# Two of the compounds above, field by field:
Compound: CCOC(=O)c1c(NC(=O)C2CC(c3ccccc3O)=NO2)sc2c1CCCC2 (stereo not drawn)
  STAT3 binder = i | p53 mut binder = i | ID4 SMM = i | Myc binder = i
Compound: Cc1noc(C)c1NC(=O)N(C)C[C@H]1Oc2c(cccc2N(C)C)C(=O)N([C@@H](C)CO)C[C@@H]1C
  STAT3 binder = i | p53 mut binder = i | ID4 SMM = i | Myc binder = i

# Remaining list, next part:
structure	STAT3 binder	p53 mut binder	ID4 SMM	Myc binder
Cc1noc(C)c1NC(=O)N(C)C[C@H]1Oc2ccc(NC(=O)CCN3CCOCC3)cc2CC(=O)N([C@@H](C)CO)C[C@H]1C	i	i	i	i
COCCCNC(=O)[C@]1(Cc2ccccc2N=[N+]=[N-])N=C(c2ccc(OCCCO)cc2)O[C@@H]1c1ccccc1N=[N+]=[N-]	i	i	i	i
CC(C)C(NC(=O)c1ccc(O)cc1)C(=O)N1CCCC1C(=O)Nc1c(O)cccc1C(=O)O (stereo not drawn)	i	i	x	i
OCc1ccc(-c2cc[n+](Cc3cc4c(cc3Br)OCO4)cc2)cc1	i	i	x	i
CC(C)(C)[C@@H]1C=C(C(=O)N2CCCCCCC2)O[C@H](OCc2ccc(CO)cc2)C1	i	i	i	i
C[C@@H]1CN([C@H](C)CO)C(=O)CCCn2nncc2CO[C@H]1CN(C)S(=O)(=O)c1ccc2ccccc2c1	i	i	i	i
COc1c(-c2ccc(O)cc2)oc2cc(O)cc(O)c2c1=O	i	i	i	i
CCOc1ccccc1C(=O)Oc1c(S(=O)(=O)c2ccc(C)cc2)c(C)nn1-c1ccccc1	i	i	i	+
COC(=O)CCSc1nc(SC)nc2sc3c(c12)CC(C)(C)OC3	i	i	i	i
O=C(OCc1cccc([N+](=O)[O-])c1)c1ccc(NC(=O)c2ccco2)cc1	i	i	i	i

# (cont.)
structure	STAT3 binder	p53 mut binder	ID4 SMM	Myc binder
C[C@H]1[C@H](C)CC[C@]2(C(=O)O)CC[C@]3(C)C(=CC[C@@H]4[C@@]5(C)CC[C@H](O)C(C)(C)[C@@H]5CC[C@]43C)[C@H]12	i	i	i	i
CC1OC(O[C@H]2CC[C@@]3(C)C(CC[C@]4(C)C3CC=C3[C@@H]5CC(C)(C)C[C@@H](O)[C@]5(C)CC[C@]34C)[C@@]2(C)CO)C(OC2OC(C(=O)O)C(O)C(O)C2OC2OCC(O)C(O)C2O)C(O)C1O (stereo partly drawn)	i	i	i	i
COc1ccc(S(=O)(=O)N(C)C[C@H]2Oc3ccc(NC(=O)Cn4cnnn4)cc3C(=O)N([C@@H](C)CO)C[C@@H]2C)cc1	i	i	i	i
C[C@H](CO)N1C[C@H](C)[C@H](CN(C)C(=O)Nc2ccc(F)cc2)Oc2c(NC(=O)Nc3cccc4ccccc34)cccc2C1=O	i	i	i	i
C[C@@H]1CC[C@]2(C(=O)O)CC[C@]3(C)C(=CCC4[C@@]5(C)C[C@@H](O)[C@@H](O)C(C)(C)C5CC[C@]43C)C2[C@]1(C)O (stereo partly drawn)	i	i	x	i
Cc1noc(C)c1S(=O)(=O)N(C)C[C@H]1Oc2ccc(NS(=O)(=O)c3cn(C)cn3)cc2CC(=O)N([C@H](C)CO)C[C@@H]1C	i	i	i	i
COc1ccc(S(=O)(=O)Nc2ccc3c(c2)C(=O)N([C@H](C)CO)C[C@H](C)[C@@H](CN(C)Cc2ccc(Cl)c(Cl)c2)OCCCC[C@H](C)O3)cc1	i	i	x	i
CC[C@@H](CO)Nc1nc(NCc2ccccc2)c2ncn(C(C)C)c2n1	i	i	x	i
COc1ccc(CN(C)C[C@H]2Oc3ccc(NC(=O)Nc4ccc(OC)cc4)cc3C(=O)N([C@H](C)CO)C[C@@H]2C)cc1	i	i	i	i
C/C=C(\C)C(=O)O[C@@H]1C(C)=C2[C@H]3OC(=O)[C@](C)(O)[C@]3(O)[C@H](OC(=O)C(C)CC)C[C@@](C)(OC(C)=O)[C@@H]2[C@H]1OC(=O)CCCCCCC (stereo partly drawn)	i	i	x	i

# Later entries
structure	STAT3 binder	p53 mut binder	ID4 SMM	Myc binder
Cc1noc(C)c1S(=O)(=O)N(C)C[C@@H]1Oc2ccc(NC(=O)Nc3ccccc3)cc2CC(=O)N([C@@H](C)CO)C[C@H]1C	i	i	i	i
CNC[C@H]1Oc2ccc(NS(=O)(=O)c3cn(C)cn3)cc2CC(=O)N([C@@H](C)CO)C[C@@H]1C	i	i	i	i
COc1ccc(S(=O)(=O)Nc2ccc3c(c2)C(=O)N([C@@H](C)CO)C[C@H](C)[C@H](CN(C)C(=O)CCCN(C)C)OCCCC[C@H](C)O3)cc1	i	i	x	i
CNC[C@H]1Oc2c(NC(=O)Nc3c(C)noc3C)cccc2C(=O)N([C@@H](C)CO)C[C@@H]1C	i	i	i	i
C[C@@H]1CN([C@@H](C)CO)C(=O)c2cccc(NC(=O)c3ccc(-c4nccs4)cc3)c2O[C@H]1CN(C)C(=O)NC1CCCCC1	i	i	i	i
Cc1noc(C)c1S(=O)(=O)Nc1cccc2c1O[C@H](CN(C)Cc1ccc3c(c1)OCO3)[C@H](C)CN([C@@H](C)CO)C2=O	i	i	i	i
C[C@@H]1CCCCO[C@H](CN(C)S(=O)(=O)c2cccs2)[C@H](C)CN([C@H](C)CO)C(=O)c2cc(NC(=O)Nc3ccccc3)ccc2O1	i	i	x	i
O=C1NC(=O)C(c2c[nH]c3ccccc23)=C1c1c[nH]c2ccccc12	i	i	i	i
C[C@@H]1CCCCO[C@H](CN(C)C(=O)CCC(F)(F)F)[C@@H](C)CN([C@H](C)CO)C(=O)c2cc(NS(=O)(=O)c3cccs3)ccc2O1	i	i	i	i
COc1ccccc1CN1CCN(Cc2cccnc2)CC1	i	i	i	+

# Later entries
structure	STAT3 binder	p53 mut binder	ID4 SMM	Myc binder
C=CCOC(=O)[C@]12O[C@@]3(COC[C@H](c4ccccc4)N3C1=O)[C@H]1C(=O)N(c3ccccc3)C(=O)[C@H]12	i	i	i	i
Cc1noc(C)c1NC(=O)N(C)C[C@@H]1Oc2ccc(NC(=O)CCN3CCOCC3)cc2CC(=O)N([C@H](C)CO)C[C@H]1C	i	i	i	i
C[C@H](CO)N1C[C@H](C)[C@H](CN(C)C(=O)NC2CCCCC2)Oc2ccc(NS(=O)(=O)c3cn(C)cn3)cc2C1=O	i	i	i	i
C[C@@H]1CCCCO[C@@H](CN(C)C(=O)Cc2ccccc2)[C@@H](C)CN([C@@H](C)CO)C(=O)c2cc(N(C)C)ccc2O1	i	i	i	i
COC(=O)Nc1nnc(CC(=O)Nc2ccccc2C)s1	i	i	i	i
C[C@@H]1CN([C@@H](C)CO)C(=O)c2cccc(NC(=O)C3CCCCC3)c2O[C@H]1CN(C)C(=O)Nc1ccc2c(c1)OCO2	i	i	x	i
N#CCc1ccc(NC(=O)COc2ccc([N+](=O)[O-])cc2)cc1	i	i	i	i
CCCNC(=O)[C@@]1(C)c2ccccc2C(=O)N(Cc2ccc(OC(F)(F)F)cc2)[C@H]1c1ccc(CO)cc1	i	i	i	i
CN(C)CCCNc1ncnc(N)c1[N+](=O)[O-]	i	i	i	i
C[C@@H]1CN([C@@H](C)CO)C(=O)c2cc(NC(=O)Cc3ccccc3)ccc2O[C@H]1CN(C)C(=O)NC1CCCCC1	i	i	i	i

# (next part)
structure	STAT3 binder	p53 mut binder	ID4 SMM	Myc binder
Cc1ccc(C)c(OC(=O)CS(=O)c2ccccc2[N+](=O)[O-])c1 (stereo not drawn)	i	i	i	i
Cc1ccc(NC(=O)CCCC(=O)Nc2ccc(C)c(C)c2)cc1C	i	i	i	i
C[C@@H]1O[C@@H](O[C@@H]2[C@@H](O)[C@H](OCCc3ccc(O)c(O)c3)O[C@H](CO[C@@H]3OC[C@](O)(CO)[C@H]3O)[C@H]2OC(=O)/C=C/c2ccc(O)c(O)c2)[C@H](O[C@@H]2OC[C@H](O)[C@H](O)[C@H]2O)[C@H](O)[C@H]1O	i	i	x	i
CCO[C@H]1OC(C(=O)NCc2ccccc2)=C[C@@H](c2ccccc2)[C@@H]1CCCO	i	i	i	i
C[C@@H]1CN([C@@H](C)CO)C(=O)c2cc(NC(=O)NC3CCCCC3)ccc2O[C@@H]1CN(C)Cc1ccc(C(=O)O)cc1	i	i	i	i
COc1ccc(S(=O)(=O)Nc2ccc3c(c2)CC(=O)N([C@H](C)CO)C[C@H](C)[C@@H](CN(C)Cc2ccc4c(c2)OCO4)O3)cc1	i	i	x	i
C[C@@H]1CN([C@H](C)CO)C(=O)c2cccc(NC(=O)c3ccncc3)c2O[C@@H]1CN(C)C(=O)NC1CCCCC1	i	i	i	i
CNC[C@@H]1Oc2ccc(NC(=O)CCN3CCOCC3)cc2CC(=O)N([C@H](C)CO)C[C@H]1C	i	i	i	i
COc1ccc(S(=O)(=O)N(C)C[C@H]2Oc3ccc(NC(=O)Cn4cnnn4)cc3C(=O)N([C@H](C)CO)C[C@@H]2C)cc1	i	i	i	i
C[C@@H]1CN([C@@H](C)CO)C(=O)CCCn2cc(nn2)CO[C@@H]1CN(C)C(=O)OCc1ccccc1	i	i	i	i
C[C@@H]1O[C@@H](O[C@H]2[C@@H]3C=CO[C@@H](O[C@@H]4O[C@H](CO)[C@@H](O)[C@H](O)[C@H]4O)[C@@H]3[C@@]3(CO)O[C@@H]23)[C@H](O)[C@H](OC(=O)/C=C/c2ccc(O)cc2)[C@H]1O	i	i	x	i
CC(C)(Oc1ccc(C2CC2(Cl)Cl)cc1)C(=O)O (stereo not drawn)	i	i	i	i
